MgrA DNA FP – S. aureus MgrA activity modulators, primary screen, biochemical, S. aureus Newman, fluorescence polarization; MgrA-DNA binding; inhibition, %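 (about 10 µg/mL by stock and volumes)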; 0.13% of 84,000 active; AID 602314, 2012;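 active = above 50% in either of two replicates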;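 also: 0% = protein plus DNA without compound and 100% = DNA alone without protein; higher means less MgrA bound to DNA so lower polarization; one replicate is shown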
Active calls of the source: *; & = joins results of further samples.

SMILES	MgrA DNA FP
CC[C@@H]1C(=O)OC[C@@H]1Cc1cncn1C	-0.7&-0.5

These rows are one share of the data; rates above refer to the full screens.
